INS promoter inh = TRM-6 insulin promoter activity inhibition | TRM-6 cells (human fetal islet line), insulin promoter-eGFP reporter, imaging; reporter expression induced with tamoxifen | inhibition, % at 2 µM | 130,000 compounds, 0.9% hits;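 active = inhibition above the mean plus 3 SD, with well images judged a real hit on visual review, cut at about 60% in these data, passing the limit was not always enough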
HSV replic up = HSV replication enhancement | HSV replication augmentation in cells, fold increase | maximum fold increase | 220,000 compounds, 0.005% hits | AID 1956;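 active = peak rise of 1.5-fold or more in the series; tested in PC3 cells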;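 note: first round at 10 µM; read as green reporter fluorescence; hits show the peak of a series up to 25 µM; 1 = signal of infected wells without compound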
PKD1 kinase inh = PKD1 (human) kinase inhibition | Q15139 | PKD1 kinase fluorescence polarization assay | inhibition, %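 (about 10 µM by stock and volumes)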 | 200,000 compounds, 0.056% hits | AID 797;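 active = inhibition of 50% or more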;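 note: controls were vehicle for no effect and a reference inhibitor for full effect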
Target sequence (Q15139 whole entry, looked up): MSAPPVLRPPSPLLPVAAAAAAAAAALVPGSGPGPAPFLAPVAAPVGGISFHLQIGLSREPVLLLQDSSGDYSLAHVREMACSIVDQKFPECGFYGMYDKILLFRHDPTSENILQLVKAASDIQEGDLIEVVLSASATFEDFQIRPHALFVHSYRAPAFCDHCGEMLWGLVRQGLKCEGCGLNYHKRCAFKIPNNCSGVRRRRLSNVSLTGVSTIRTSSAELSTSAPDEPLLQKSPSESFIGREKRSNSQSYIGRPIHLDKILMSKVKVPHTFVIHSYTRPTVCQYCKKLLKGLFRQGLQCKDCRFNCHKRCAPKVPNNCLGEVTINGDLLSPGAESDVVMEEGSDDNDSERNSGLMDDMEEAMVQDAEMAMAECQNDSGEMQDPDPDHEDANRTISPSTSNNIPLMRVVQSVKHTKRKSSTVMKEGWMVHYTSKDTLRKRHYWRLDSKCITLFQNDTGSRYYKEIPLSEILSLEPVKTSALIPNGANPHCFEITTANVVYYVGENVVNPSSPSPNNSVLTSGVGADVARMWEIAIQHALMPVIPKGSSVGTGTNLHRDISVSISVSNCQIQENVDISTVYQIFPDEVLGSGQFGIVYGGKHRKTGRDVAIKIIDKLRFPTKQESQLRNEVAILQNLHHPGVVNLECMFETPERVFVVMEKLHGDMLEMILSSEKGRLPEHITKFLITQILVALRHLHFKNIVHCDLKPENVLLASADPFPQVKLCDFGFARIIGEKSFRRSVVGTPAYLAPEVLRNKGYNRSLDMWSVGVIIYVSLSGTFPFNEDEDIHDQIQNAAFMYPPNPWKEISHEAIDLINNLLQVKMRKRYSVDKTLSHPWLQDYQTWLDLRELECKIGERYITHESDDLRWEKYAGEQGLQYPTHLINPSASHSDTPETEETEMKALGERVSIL
GALR2 agonist = GALR2 (human) receptor agonism; activation, %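 (tested at 5 µM)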; AID 803; O43603; GALR2-expressing cells, agonist activation read-out; 140,000 compounds, 0.48% hits;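 active = above mean plus 3 SD of all compounds, about 5% in these data, not always enough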;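 note: 0% = vehicle buffer wells and 100% = reference agonist at full effect; tested in CHO reporter cells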
RGS16-Gao = regulators of human RGS16-Galphao interaction; AID 1441; 220,000 compounds, 0.38% hits; binding response (% of control), % at 10 µM; O15492+P09471; bead-based flow cytometry RGS16-Galphao binding, fluorescence; actives lie on both sides;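 active = below 25% or above 175%, edge rows of some plates excepted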;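 note: Galphao activated by GDP with aluminum fluoride before binding; 100% = wells without compound and 0% = beads without RGS; some results beyond the cut were filed as inactive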
INS promoter inh cell count = recorded beside INS promoter inh, whose call it bears; normalized cell count, %; measured here: cell count, toxicity; reference of the scale not given here;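 cells exposed to compound for 48 h; stained nuclei by imaging scaled within each plate; lower means fewer cells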
HSV replic up primary fold = also measured in HSV replic up; calls as there; fold increase; compound at 10 µM; measured here: primary screen fold increase 10 uM; tested in PC3 cells;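 GFP signal in the first replicate; 1 = infected wells without compound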
Numbers without * were called inactive; i = inactive; · = no result given; [ ] = dose if it differs, or a comment.

SMILES | INS promoter inh | INS promoter inh cell count | HSV replic up | HSV replic up primary fold | PKD1 kinase inh | GALR2 agonist | RGS16-Gao
COc1ccc(C2c3ccc4ccccc4c3Oc3ncn(CCCO)c(=N)c32)cc1 (stereo unspecified) | · | · | i | 0.66 | · | · | 122.8
COc1ccc(/C=N/NC(=O)c2ccncc2)cc1Cn1nc([N+](=O)[O-])c(Br)c1C | -393.8 | 53.2 | i | 0.86 | -1.9 | · | 102.7
Cc1ccc(C(=O)Nc2ccccc2C(=O)N2CCCCCC2)cc1 | · | · | i | 1.36 | · | · | 95.0
COC(=O)C1CC(O)CN1S(=O)(=O)c1cccs1 (stereo unspecified) | 0.0 | 74.1 | i | 1 | -0.7 | · | 99.4
O=C(CCCC(=O)Nc1cccnc1)Nc1cccnc1 | -17.9 | 90.0 | i | 1.01 | 2.9 | 0.4 | 105.1
CC(C)C(NS(=O)(=O)c1ccccc1)C(=O)OCc1cc([N+](=O)[O-])cc2c1OCOC2 (stereo unspecified) | · | · | i | 1.09 | 3.1 | -0.6 | 117.7
Cn1cc([N+](=O)[O-])c(C(=O)n2cccn2)n1 | · | · | i | 1.12 | · | · | 100.7
O=C(O)c1cccc(CSc2n[nH]c(-c3ccc(Cl)cc3Cl)n2)c1 | 31.4 | 95.6 | i | 0.95 | 2.6 | · | 106.7
COc1ccc(Nc2nc(N)nc(CN3CCN(c4ccc(F)cc4)CC3)n2)cc1 | · | · | i | 1.01 | -5.3 | · | 106.3
COCCn1c(SCC(=O)N2CCC(C)CC2)nc2ccccc2c1=O | 3.1 | 128.1 | i | 1.02 | -10.3 | -0.8 | 107.4
COc1ccc(/C(O)=C2\C(=O)C(=O)N(c3cc(C)on3)C2c2ccccc2OC)cc1 (stereo unspecified) | 0.0 | 99.8 | i | 1.01 | 5.8 | -2.0 | 104.8
O=C(CN1CCN(Cc2ccccc2Cl)C1=O)NCc1ccccn1 | · | · | i | 0.96 | · | · | 95.8
COc1ccc(OC)c(NC(=O)CN2C(=O)NC3(CCOc4ccccc43)C2=O)c1 (stereo unspecified) | 13.0 | 85.3 | i | 0.89 | -11.9 | -0.7 | 105.6
Cc1cc(C)nc(SCc2nnc(SCC(=O)Nc3nc(-c4ccccc4)cs3)n2-c2ccccc2)n1 | -14.3 | 77.8 | i | 0.9 | -5.2 | -0.8 | 94.5
CCCCCN1N=C(C)CC1=O | 66.7* | 51.1* | i | 0.99 | 3.3 | · | 103.2
O=[N+]([O-])c1cccnc1Oc1ccc(F)cc1F | · | · | i | 0.94 | · | · | 102.4
O=C(c1c[nH]c2ccccc12)C(F)(F)F | · | · | i | 0.96 | · | · | 95.9
Cc1sc2nc(CSCC(=O)Nc3ccc(OC(F)F)cc3)[nH]c(=O)c2c1C | -27.3 | 72.3 | i | 1.04 | -6.9 | · | 106.0
CCOC(=O)c1ccc(N=C2SC(C(=O)NC)CC(=O)N2Cc2ccc(F)cc2)cc1 (stereo unspecified) | 25.0 | 155.2 | i | 0.84 | -9.3 | · | 99.3
CC1CCCCN1S(=O)(=O)c1ccc(NC(=O)c2ccco2)cc1 (stereo unspecified) | -41.4 | 100.0 | i | 0.92 | -4.2 | -0.1 | 99.8
COc1ccc(N2C(=O)C3C4C=CC(CC4)C3C2=O)c([N+](=O)[O-])c1 (stereo unspecified) | · | · | i | 0.87 | -4.9 | -2.7 | 98.5
CCOC(=O)c1sc2ncn(/N=C/N(C)C)c(=O)c2c1C | 9.1 | 71.1 | i | 0.93 | 3.5 | 0.1 | 110.0
Cc1cc(N/N=C/c2ccc3c(c2)OCO3)nc2ccccc12 | · | · | i | 0.9 | · | · | 92.1
CCOC(=O)N/N=C/c1cccc(Cl)c1Cl | 7.1 | 84.3 | i | 0.98 | -2.5 | -0.8 | 108.9
O=C(c1ccc2c(c1)OCO2)N1CCN=C1SCc1cccnc1 | · | · | i | 1 | -5.0 | -1.4 | 100.2
O=C(Cn1cnc2c(cnn2-c2ccc(F)cc2)c1=O)N1CCN(c2ccccc2F)CC1 | · | · | i | 0.98 | -8.3 | -2.0 | 97.9
CC(C(=O)OCC(=O)Nc1cccc(S(=O)(=O)N2CCOCC2)c1)N1C(=O)c2ccccc2C1=O (stereo unspecified) | 9.1 | 94.8 | i | 1.01 | 5.6 | · | 101.2
Cc1ccc(N(CC(N)=O)C2SC(=O)N(Cc3ccccc3)C2=O)cc1 (stereo unspecified) | · | · | i | 1.07 | -3.5 | -5.4 | 112.5
O=[N+]([O-])c1ccc(/C=N/n2c(CO)nc3ccccc32)s1 | · | · | i | 0.87 | 4.3 | -1.1 | 105.8
COC(=O)NCC12CC3CC(C1)CC(CNC(=O)OC)(C3)C2 | -8.7 | 95.5 | i | 1.03 | -4.3 | -2.4 | 94.6
NC(=O)CC[C@@H]1NC(=O)C(Cc2ccc(O)cc2)NC(=O)c2cc([N+](=O)[O-])cc(F)c2NCCC[C@@H](C(N)=O)NC1=O (stereo partly specified) | 40.0 | 140.4 | i | 0.73 | -1.0 | -1.0 | 97.3
CC1CCN(S(=O)(=O)c2cccc(C(=O)O)c2)CC1 | · | · | i | 0.89 | 2.0 | -1.9 | 74.9
C/C(=N\NC(=O)c1c(Cl)c(C)nn1C)c1ccc(NC(=O)c2ccncc2)cc1 | 22.9 | 93.7 | i | 0.93 | 9.8 | 0.2 | 97.0
CCOc1ccc2nc(NC(NC(C)=O)(C(=O)OC)C(F)(F)F)sc2c1 (stereo unspecified) | · | · | i | 0.95 | -2.8 | -0.9 | 102.3
CCOc1ccccc1C=Nc1ccccc1C(=O)Nc1ccccc1 | 53.9 | 97.3 | i | 0.99 | 7.8 | -2.4 | 96.2
S=c1[nH]c2ccc(Cl)cc2s1 | · | · | i | 0.92 | · | · | 105.2
CC1CN(C(=O)c2cn3ccccc3n2)CC(C)O1 (stereo unspecified) | 45.2 | 162.9 | i | 0.93 | -13.8 | -1.8 | 112.7
CC(C)(C)SCCNC(=O)/C=C/c1ccc(F)cc1 | · | · | i | 0.97 | -8.7 | -1.9 | 101.5
CN(C)S(=O)(=O)c1cccc(C(=O)NCc2cccs2)c1 | -10.0 | 100.7 | i | 1.1 | -8.1 | -2.4 | 102.9
Cc1ccccc1NS(=O)(=O)c1cc(C(=O)Nc2cccc(N(C)S(C)(=O)=O)c2)ccc1C | · | · | i | 0.76 | 18.1 | -1.9 | 102.6
COC(=O)CN1C(=O)N/C(=C/c2ccc(OC)cc2)C1=O | · | · | i | 0.96 | -2.9 | · | 102.9
O=C(CN1CCOCC1)NCC12CC3CC(CC(C3)C1)C2 | · | · | i | 1 | -6.3 | -1.7 | 103.2
CCCCNC(=O)CSc1nc2ccccc2c(=O)n1Cc1ccc2c(c1)OCO2 | -58.3 | 93.8 | i | 0.99 | -3.8 | -1.9 | 103.6
CC(C)(C)n1[nH]c2c3c(ccc2c1=O)C(=O)c1ccccc1C3=O | 8.3 | 85.7 | i | 0.58 | -10.6 | -2.4 | 102.6
Cc1ccc(NC(=O)CSc2nc3ccccc3c(=O)n2CCCN2CCCCC2)cc1C | -25.7 | 140.0 | i | 0.46 | -2.3 | -1.3 | 98.5
CC(Sc1nc(-c2ccccc2)cc(C(F)(F)F)n1)C(=O)NCc1ccco1 (stereo unspecified) | 5.7 | 108.6 | i | 0.66 | 5.5 | -5.0 | 97.7
C=CCn1c(=N)n(CC(O)COc2ccccc2OC)c2ccccc21 (stereo unspecified) | · | · | i | 0.95 | 1.2 | -2.2 | 193.2
CCCCC(=O)Nc1sc2c(c1C#N)CC(C)(C)OC2 | -83.3 | 122.0 | i | 1.02 | -1.7 | -0.4 | 114.5
NC(=O)COC(=O)c1cc(-c2cccs2)nn1-c1ccccc1 | 16.7 | 150.5 | i | 0.85 | -4.2 | · | 111.3
CCn1nc(C(=O)OC2CCOC2=O)c2ccccc2c1=O (stereo unspecified) | 28.6 | 107.4 | i | 0.97 | -2.0 | -2.3 | 97.6
COc1ccc(OC)c(S(=O)(=O)Nc2ccc(F)cc2)c1 | -25.0 | 92.2 | i | 1.21 | 1.9 | -2.1 | 103.1
Cc1nc2cncc(Br)c2n1C | · | · | i | 0.91 | 10.0 | -3.3 | 104.7
O=S(=O)(Nc1ncccn1)c1ccc(Nc2ncnc3ccccc23)cc1 | 66.7 | 41.8 | i | 0.84 | -4.6 | -4.2 | 97.2
CC(C)Oc1ccc(C(=O)NCc2ccco2)cc1 | -20.0 | 61.8 | i | 0.94 | -9.5 | -0.9 | 100.2
CCOC(=O)N1CCN(c2c(NCCOC)c(=O)c2=O)CC1 | · | · | i | 1.02 | -1.6 | -1.9 | 100.6
Cc1ccc(C(=O)C2C(c3ccc(-c4ccccc4[N+](=O)[O-])o3)NC(=O)NC2(O)C(F)(F)F)cc1 (stereo unspecified) | -7.4 | 81.6 | i | 0.877 | -4.2 | -1.5 | ·
CC(NS(=O)(=O)/C=C/c1ccccc1)C(=O)NCCc1ccc(S(N)(=O)=O)cc1 (stereo unspecified) | · | · | i | 0.97 | 6.2 | · | 105.2
Cc1ccc(NC(=S)N2CCN(C)CC2)c(C)c1 | -16.7 | 107.6 | i | 0.97 | 2.2 | -0.7 | 186.1*[activator]
COc1ccc(CNC(=O)COC(=O)CCC2CCCCC2)cc1 | · | · | i | 1 | -2.4 | -0.3 | 100.6
CCOC(=O)C1=NNC2C(=O)N(C3CCCCC3)C(=O)C12 (stereo unspecified) | -47.4 | 64.7 | i | 0.953 | -1.6 | -2.0 | 101.2

Additional entries:
SMILES | INS promoter inh | INS promoter inh cell count | HSV replic up | HSV replic up primary fold | PKD1 kinase inh | GALR2 agonist | RGS16-Gao
O=S(=O)(Nc1ccc(-c2cn3ccccc3n2)cc1)c1ccccc1 | · | · | i | 0.92 | · | · | 99.0
Cc1ccc(N2C(=O)Nc3ccc(Br)cc3C2(O)C(=O)NCCCN(C)C)cc1C (stereo unspecified) | -91.3 | 107.7 | i | 1 | 1.6 | -1.9 | 99.3
CC(C)(CO)C(O)C(=O)NCCC#N (stereo unspecified) | · | · | i | 1.03 | 7.0 | · | 111.7
CC(C)NS(=O)(=O)c1ccc(OCC(=O)Nc2ccc3c(c2)OCO3)cc1 | 29.4 | 95.0 | i | 0.98 | -1.8 | · | 33.4
O=C(NC1CCCCCCC1)C1CCN(S(=O)(=O)N2CCCC2)CC1 | -40.6 | 117.7 | i | 0.88 | -6.4 | -1.4 | 55.5
Cc1c(Cl)cccc1N1C(=O)c2ccccc2C1=O | 52.8 | 62.5 | · | · | -9.1 | -1.1 | 110.0
CCOC(=O)Cn1cncc1-c1ccc([N+](=O)[O-])cc1 | 16.7 | 123.6 | · | · | 4.4 | -1.6 | 31.5
COc1ccc2c(c1)c1ncn(Cc3ccccn3)c(=O)c1n2C | · | · | i | 0.81 | · | · | 103.8
COC(=O)/C=C/c1c(C)[nH]c(=O)[nH]c1=O | · | · | i | 0.99 | · | · | 103.6
CC(C)N(Cc1ccccc1)C(=S)Nc1cccnc1 | · | · | i | 1.04 | -3.8 | · | 97.3
Cc1cccc(-n2cc(-c3ccc([N+](=O)[O-])cc3)[nH]c2=S)c1 | · | · | i | 0.99 | 5.7 | -1.1 | 100.8
N#Cc1ccc(COC(=O)c2ccccn2)cc1 | · | · | i | 1.07 | -3.3 | · | 105.1
Brc1cc2c(cc1/C=N/Nc1nc(N3CCOCC3)nc(N3CCOCC3)n1)OCO2 | 51.0 | 79.5 | i | 0.96 | 2.0 | 0.4 | 106.9
COCCNc1nc2nonc2nc1NC(C)c1ccccc1Cl (stereo unspecified) | 61.9 | 142.4 | i | 0.98 | 0.5 | · | 63.9

Profiles from above. Order of screens: INS promoter inh | INS promoter inh cell count | HSV replic up | HSV replic up primary fold | PKD1 kinase inh | GALR2 agonist | RGS16-Gao
Brc1cc2c(cc1/C=N/Nc1nc(N3CCOCC3)nc(N3CCOCC3)n1)OCO2 is entered as 51.0 | 79.5 | i | 0.96 | 2.0 | 0.4 | 106.9
COc1ccc2c(c1)c1ncn(Cc3ccccn3)c(=O)c1n2C is entered as · | · | i | 0.81 | · | · | 103.8

Already shown: an excerpt of the list.
SMILES | INS promoter inh | INS promoter inh cell count | HSV replic up | HSV replic up primary fold | PKD1 kinase inh | GALR2 agonist | RGS16-Gao
CCOC(=O)Cn1cncc1-c1ccc([N+](=O)[O-])cc1 | 16.7 | 123.6 | · | · | 4.4 | -1.6 | 31.5
COc1ccc2c(c1)c1ncn(Cc3ccccn3)c(=O)c1n2C | · | · | i | 0.81 | · | · | 103.8
COC(=O)/C=C/c1c(C)[nH]c(=O)[nH]c1=O | · | · | i | 0.99 | · | · | 103.6
CC(C)N(Cc1ccccc1)C(=S)Nc1cccnc1 | · | · | i | 1.04 | -3.8 | · | 97.3
Cc1cccc(-n2cc(-c3ccc([N+](=O)[O-])cc3)[nH]c2=S)c1 | · | · | i | 0.99 | 5.7 | -1.1 | 100.8
N#Cc1ccc(COC(=O)c2ccccn2)cc1 | · | · | i | 1.07 | -3.3 | · | 105.1

Screening data: PubChem, several laboratories
